UCH37 inh: human UCH37 deubiquitinating enzyme inhibition; Q9Y5K5; purified proteasome/UCH37, Ub-AMC cleavage fluorescence; inhibition, % (test concentration not listed); hit rate 0.33% among 330,000; AID 588478;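 active = mean of two replicates above 20%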;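 also: 0% = compound-free wells with enzyme and 100% = wells lacking proteasome; stock transfer was 100 nL into about 20 µL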
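Schedule: 30 min plus 25 min, room temperature / Material: human UCH37 within purified proteasomes / Technique: AMC fluorescence intensity at 355/460 nm / Buffer or medium: pH 7.4 Tris-HCl (50 mM) with ovalbumin, ATP-MgCl2, DTT / Controls: wells without proteasome as full block, compound-free enzyme plus substrate as uninhibited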
rRNA inh HTS: inhibitors of bacterial rRNA selective over humanized ribosomes; E. coli WT GFP vs humanized-ribosome RFP mutants, fluorescence, 24 h; stronger effect = lower value; DMSO median 0, no signal -100; GFP signal change (wild-type ribosome), % (test concentration not listed); hit rate 1.6% among 350,000; AID 720706;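 active = significant combined selectivity score with lowered wild-type GFP, culture density cut under 30%, mutant RFP and density less affected; inactive = any of these conditions unmet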; also: one replicate is shown; some compounds called inactive have numbers as strong as hits
Ecoli growth: E. coli growth inhibition; AID 1053175; OD600 absorbance (test concentration not listed); Escherichia coli growth, OD600, 23 h; stronger effect = lower value; hit rate 0.21% among 330,000;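 active = OD600 absorbance below the run mean of sample wells minus 3.6 SD, in any replicate, cut at about 0.56 in these data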;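 also: stock transfer was 300 nL into about 60 µL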
B2AR ag: agonists of human beta-2 adrenergic receptor inducing internalization. hit rate 0.43% among 340,000. AID 504454. response, % (concentration not given with the values). P07550. Am2.2-beta2AR cells, FAP receptor internalization, flow cytometry; reference of the scale not given here;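 active = response above a set limit, near 3 SD of response in nonfluorescent compounds, cut at about 42% in these data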;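 also: stock transfer was 100 nL into about 11 µL; a reference agonist was the positive control; negative values mostly stem from fluorescent compounds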
ALR H2O2 inh: blocks human ALR sulfhydryl oxidase activity; P55789; purified ALR, DTT oxidation, H2O2 HRP-luminol luminescence; inhibition, % (test concentration not listed); hit rate 3.8% among 290,000; AID 485317;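 active = mean and each replicate at 75% or more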;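 also: stock transfer was 7.5 nL into about 7.5 µL; 0% = neutral wells and 100% = wells with inactivated enzyme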
Target sequence (P55789 whole entry, looked up): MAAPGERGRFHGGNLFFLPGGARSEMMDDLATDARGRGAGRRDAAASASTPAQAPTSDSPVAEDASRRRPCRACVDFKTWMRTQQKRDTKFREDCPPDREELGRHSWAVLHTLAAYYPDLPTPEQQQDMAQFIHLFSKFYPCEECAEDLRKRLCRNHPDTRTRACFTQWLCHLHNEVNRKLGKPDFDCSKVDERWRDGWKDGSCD
FGF22 binding: shifts melting point of recombinant human FGF22. recombinant FGF22 thermal shift, SYPRO orange fluorescence; percent of sucrose octasulfate shift, DMSO zero. calls only at 9.99 µM. hit rate 1.5% among 340,000. AID 651658;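 active = melting point raised past a set limit in the mean and every replicate; three in four hits are not shown here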
Target sequence (Q9HCT0 whole entry, looked up): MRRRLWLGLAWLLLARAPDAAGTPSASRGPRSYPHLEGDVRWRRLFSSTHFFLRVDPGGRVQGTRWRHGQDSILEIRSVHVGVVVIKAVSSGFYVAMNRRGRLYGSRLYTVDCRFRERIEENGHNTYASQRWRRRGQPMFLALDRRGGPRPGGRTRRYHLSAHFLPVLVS
HNF4A DNA FP: change in binding of human HNF4 alpha to DNA; P41235; HNF4a-FITC DNA binding, fluorescence polarization, 1 h; activity change, % at 10 µM; hit rate 0.3% among 360,000; AID 1224865; in the data active = activity change above about 30%, passing the limit was not always enough;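 also: controls were the assay level and a saturating level of protein; the project sought stronger binding though the title names inhibitors; some compounds called inactive have numbers as strong as hits; positive values seem to mean higher polarization but the record does not say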
Target sequence (P41235 whole entry, looked up): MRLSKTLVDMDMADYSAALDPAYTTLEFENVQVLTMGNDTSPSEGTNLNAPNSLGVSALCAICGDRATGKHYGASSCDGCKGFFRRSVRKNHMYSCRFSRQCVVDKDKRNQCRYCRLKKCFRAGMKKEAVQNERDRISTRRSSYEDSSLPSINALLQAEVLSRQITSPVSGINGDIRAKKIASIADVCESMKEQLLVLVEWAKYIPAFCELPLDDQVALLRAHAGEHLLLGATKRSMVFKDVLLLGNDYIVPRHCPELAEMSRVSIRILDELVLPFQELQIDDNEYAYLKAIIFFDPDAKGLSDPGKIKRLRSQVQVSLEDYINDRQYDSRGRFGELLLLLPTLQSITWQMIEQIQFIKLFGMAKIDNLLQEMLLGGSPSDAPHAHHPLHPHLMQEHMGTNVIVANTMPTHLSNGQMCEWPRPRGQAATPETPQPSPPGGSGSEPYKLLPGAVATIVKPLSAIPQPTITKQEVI
rRNA inh HTS OD600: also measured in rRNA inh HTS; calls as there; OD600 change, %; measured here: OD600 growth;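 optical density of the mix in the first replicate; 0 = DMSO median and -100 = no signal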
rRNA inh HTS RFP: further read-out of rRNA inh HTS, marked with its call; RFP signal change, %; measured here: RFP humanized mutant strains;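 first replicate; 0 = DMSO median and -100 = no signal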
Active calls of the source: *; i = inactive; x = not tested or not shown; + = active, no number.

SMILES,B2AR ag,rRNA inh HTS RFP,HNF4A DNA FP,rRNA inh HTS OD600,rRNA inh HTS,ALR H2O2 inh,Ecoli growth,FGF22 binding,UCH37 inh
Cc1ccc2[nH]c(=O)c(CN(c3cccc(C)c3C)S(=O)(=O)c3ccccc3)cc2c1,-1.4,x,0.5,x,x,-2.3,0.674,x,-16.6
O=C(NCCc1ccc(Cl)cc1)C1CCN(S(=O)(=O)N2CCCC2)CC1,-4.5,x,-2.9,x,x,-3.3,0.628,x,1.5
O=C(C(=O)N1CCN(C/C=C/c2ccccc2)CC1)c1ccccc1,x,0.9,2.7,-14.4,-18.8,x,x,+,x
COc1ccccc1C(=O)NNC(=O)C(=O)N1CCCCC1,8.1,-0.5,-2.4,12.7,19.7,13.2,0.707,i,-0.4
CCCCc1nnc(NC(=O)C=C(C)C)s1,-7.6,x,0.4,x,x,x,0.697,x,2.7
CCn1cc(C(=O)O)c(=O)c2cc(F)c(N3CCN(C(=O)Nc4ccccc4)CC3)cc21,-2.0,x,2.5,x,x,x,0.051*,x,-46.0
COCCCNC(=O)c1cccn2c(=O)c3cc4ccccc4cc3nc12,9.1,-7.5,2.0,-28.6,-9.3,-23.0,0.706,x,0.9
COc1ccc(C2=Nn3c([n+](C)c4ccccc43)SC2)cc1,-10.6,-2.7,0.1,-35.0,-12.8,66.5,0.663,x,12.1
Cc1cc(O)c(/C=N/OCc2ccc(Cl)cc2Cl)c(=O)o1,-0.8,6.1,-3.2,7.8,-13.8,20.0,x,i,x
COc1cccc(NC(=O)c2nn(C34CC5CC(CC(C5)C3)C4)cc2[N+](=O)[O-])c1,1.2,x,3.5,x,x,-0.3,0.725,x,3.5
COc1cccc(OCC(=O)NC2CCCCC2)c1,-3.8,-4.8,5.1,-0.1,7.6,-7.3,0.668,i,3.2
CSCCC(NS(=O)(=O)c1cc(C(=O)O)ccc1Cl)C(=O)O (configuration not stated),-1.3,-1.0,4.3,9.9,7.6,-0.6,0.691,i,0.0
COc1ccc2nc(NC(=O)C3CCCN3S(=O)(=O)c3ccc(C)cc3)sc2c1 (configuration not stated),5.3,x,0.8,x,x,-1.2,0.702,x,7.3
COC(=O)CCC(=O)OC1(C)C(=O)C=C2C=C(C3CC3)N(C3CC3)C=C2C1=O (configuration not stated),1.0,-1.4,-3.7,16.2,14.3,-22.7,0.671,i,2.5
CC(C)(C)OC(=O)N1CCCN(C(=O)Nc2ccc(C(F)(F)F)cc2)CC1,7.8,2.8,1.4,-4.7,-0.8,-2.6,0.695,i,5.3
O=C(O)c1ccc(SCc2cnc(Cl)s2)cc1,0.2,x,-4.1,x,x,x,0.701,x,3.2
CCOc1ccc2oc(C(=O)OCC(=O)NC(=O)NC)c(C)c2c1,5.5,-17.1,3.2,-34.1,-23.8,-1.9,0.71,i,-33.6
O=C(CN(C(=O)CCC(=O)Nc1nccs1)c1ccc(F)cc1)NCc1ccc(F)cc1,-7.3,-0.5,-0.5,5.5,7.3,-1.3,0.664,i,2.0
Cc1ccccc1NC(=S)NC1(C)CCS(=O)(=O)C1 (configuration not stated),8.9,x,-1.1,x,x,-3.0,0.711,i,1.2
CC(=O)c1ccc(NC(=S)N2CCCC2)cc1,0.2,2.1,-0.4,19.0,11.2,-17.6,0.668,i,1.7
CN(C)c1ccc(NC(=O)CSc2n[nH]c(-c3ccncc3)n2)cc1,-5.0,0.6,-1.5,-0.7,-0.2,x,x,i,x
Cc1ccc(Cc2c(C(C)(C)C)nc3ccc(Br)cn23)cc1,x,0.0,8.5,3.1,5.5,x,x,i,x
CCOCC(=O)Nc1cc(C(=O)Nc2cccc(C)c2C)ccc1Cl,2.6,-0.1,0.5,7.6,8.9,-1.0,0.649,i,1.1
Cc1cccc(NS(=O)(=O)c2ccc(C)c(C(=O)NCc3ccncc3)c2)c1,1.4,0.2,1.7,2.6,3.8,x,0.682,i,3.6
COc1ccc(S(=O)(=O)Nc2cccc(-n3cnnn3)c2)cc1OC,-3.8,0.2,-0.6,1.1,5.4,-3.1,0.704,i,1.1
CC1CCCN1CC#CC(O)(c1ccccc1)c1ccccc1 (configuration not stated),-2.0,x,-0.5,x,x,-1.0,0.715,i,1.6
Cc1ccc(/C(O)=C/c2nc3ccccc3oc2=O)cc1,-3.1,6.1,29.8,-11.0,-9.7,-1.2,0.664,i,3.1
O=C(NC1CCCN(c2ccc(C(F)(F)F)cn2)C1)c1ccnc(Cl)c1 (configuration not stated),-10.0,-0.2,5.4,16.2,2.6,-1.0,0.682,i,2.5
Cc1ccccc1CN1C(=O)c2ccccc2C1c1nnnn1Cc1ccccc1 (configuration not stated),x,-10.0,-1.4,-45.2,-26.6,x,x,i,x
NNC(=O)c1cc(-c2ccco2)[nH]n1,-10.1,-2.6,1.1,0.1,-3.5,61.9,0.734,i,-1.0

Single values from the list.
Cc1ccccc1NC(=S)NC1(C)CCS(=O)(=O)C1 (configuration not stated) – HNF4A DNA FP: -1.1
O=C(C(=O)N1CCN(C/C=C/c2ccccc2)CC1)c1ccccc1 – rRNA inh HTS OD600: -14.4
CCOCC(=O)Nc1cc(C(=O)Nc2cccc(C)c2C)ccc1Cl – ALR H2O2 inh: -1.0
COc1cccc(OCC(=O)NC2CCCCC2)c1 – B2AR ag: -3.8
O=C(NC1CCCN(c2ccc(C(F)(F)F)cn2)C1)c1ccnc(Cl)c1 (configuration not stated) – HNF4A DNA FP: 5.4

The list goes on:
SMILES,B2AR ag,rRNA inh HTS RFP,HNF4A DNA FP,rRNA inh HTS OD600,rRNA inh HTS,ALR H2O2 inh,Ecoli growth,FGF22 binding,UCH37 inh
Cc1c(C)c2ccc(OCc3ccc(C(=O)O)o3)c(C)c2oc1=O,16.0,x,-2.6,x,x,25.0,0.626,x,-177.6
Cc1nc2ncccn2c1-c1csc(NCc2ccco2)n1,-0.9,x,-2.9,x,x,-34.1,0.672,x,6.2
CC(C)(C)c1ccc2c(c1)OC(C(=O)N/N=C\c1ccncc1)CO2 (configuration not stated),3.0,-2.8,-3.6,-5.1,-0.6,-1.7,x,i,x
Cc1ccc(-c2nnc(SCC#CCOC(=O)c3cccs3)o2)cc1,-5.7,x,-6.7,x,x,31.1,0.678,x,1.6
CCCNC(=O)N1CCC(c2ccc3c(c2)OCO3)CC1,6.0,-2.0,3.5,-8.1,-6.9,-25.8,0.654,i,3.9
COC(=O)N/N=C/c1cccc([N+](=O)[O-])c1,1.0,x,1.2,x,x,-15.4,x,i,x
CSc1ncccc1C(=O)OCC(=O)NCc1cccs1,0.6,-1.9,1.3,-18.9,-18.7,0.4,0.648,i,4.6
CCCOC1CCCN(Cc2nc(-c3cnccn3)no2)C1 (configuration not stated),2.3,2.9,1.3,8.1,13.9,0.5,0.741,i,-2.3
CCN(C(=O)COC(=O)CNC(=O)C12CC3CC(CC(C3)C1)C2)C1CCS(=O)(=O)C1 (configuration not stated),-3.2,3.6,3.2,4.4,9.7,-16.8,0.692,i,1.8
CCCC(=O)Nc1c2c(nn1-c1ccc(OC)cc1)CS(=O)C2 (configuration not stated),4.0,x,-2.4,x,x,5.5,0.677,x,2.0
CCNC(=O)C1CCCN(C(=O)c2cccs2)CC1 (configuration not stated),x,2.5,-3.2,27.3,20.7,x,x,i,x
COc1cc(C(=O)Nc2cccc(-c3nc4cc(C)cc(C)c4o3)c2)cc(OC)c1OC,3.0,x,-0.3,x,x,x,0.693,x,-7.2
COc1cccc(NC(=O)COC(=O)c2ccc3c(c2)OCO3)c1,6.4,-1.4,0.9,2.1,2.9,x,0.69,i,-2.1
COc1ccc(NC(=O)CCCCC(=O)Nc2ccc(OC)cc2OC)c(OC)c1,-3.9,0.5,-0.1,7.1,2.2,-13.1,0.679,i,3.0
CCOCCCn1c(SCC(=O)NC(C)(C)C)nc2ccccc2c1=O,-9.3,x,-4.1,x,x,-23.0,0.623,x,1.9
COc1ccc(NC2CCCN(C(=O)c3csc(C)n3)C2)cc1 (configuration not stated),-1.5,2.7,-0.1,8.3,11.0,99.3*,0.682,i,1.5
Cc1cccc(C)c1NC(=O)CNC(=O)c1cnccn1,-2.9,1.3,2.8,10.6,10.9,-9.5,0.651,i,-0.1
CSCCC(NC(=O)c1ccccc1)C(=O)NC1CC1 (configuration not stated),-2.4,x,0.0,x,x,-2.2,0.732,x,2.6
CCN1C(=O)C(O)(CC(=O)c2cccc(-n3cccc3)c2)c2ccccc21 (configuration not stated),-6.9,-0.1,-0.6,-19.7,-22.6,8.0,0.616,x,3.0
CC(C(=O)OCC(=O)NC1CCCC1)N1C(=O)c2ccccc2C1=O (configuration not stated),-0.9,3.9,1.8,7.9,10.1,-0.6,0.662,i,3.4

By substructure: the compounds so far with a CF3 group.
SMILES,B2AR ag,rRNA inh HTS RFP,HNF4A DNA FP,rRNA inh HTS OD600,rRNA inh HTS,ALR H2O2 inh,Ecoli growth,FGF22 binding,UCH37 inh
CC(C)(C)OC(=O)N1CCCN(C(=O)Nc2ccc(C(F)(F)F)cc2)CC1,7.8,2.8,1.4,-4.7,-0.8,-2.6,0.695,i,5.3
O=C(NC1CCCN(c2ccc(C(F)(F)F)cn2)C1)c1ccnc(Cl)c1 (configuration not stated),-10.0,-0.2,5.4,16.2,2.6,-1.0,0.682,i,2.5

In another format: results already given
Values run as follows: B2AR ag | rRNA inh HTS RFP | HNF4A DNA FP | rRNA inh HTS OD600 | rRNA inh HTS | ALR H2O2 inh | Ecoli growth | FGF22 binding | UCH37 inh
- CCNC(=O)C1CCCN(C(=O)c2cccs2)CC1 (configuration not stated)
    x | 2.5 | -3.2 | 27.3 | 20.7 | x | x | i | x
- COc1cccc(NC(=O)COC(=O)c2ccc3c(c2)OCO3)c1
    6.4 | -1.4 | 0.9 | 2.1 | 2.9 | x | 0.69 | i | -2.1

Bioassay records: PubChem, several laboratories

These rows are one share of the data. The share of hits here may be higher or lower than overall.
